From PubChem
2A Renilla: FMDV 2A StopGo reporter, Renilla signal | HEK cells with a luciferase reporter of 2A StopGo recoding | Potency, µM (doses to about 57.5 µM), for inactives: top-dose signal change, negative = less light | actives 0.32% (n = 120,000) | AID 1745857; active means well fitted falling curve with a large enough effect; inconclusive means small, poorly fitted or top-dose-only effect; inactive means no such curve, though single readings can be large or run the other way; further: nearly all actives have a fitted effect of over 55% in size; overnight with compound
StopGo FLuc: lowers the firefly signal of an FMDV 2A StopGo reporter; HEK cells with a luciferase reporter of 2A StopGo recoding; Potency, µM (titrated, usually from 57.5 µM), for the others: top-dose signal change, negative = less light; actives 0.23% (n = 120,000); active = well fitted falling curve with a large enough effect; inconclusive = small, poorly fitted or top-dose-only effect; inactive = no such curve, though single readings can be large or run the other way; further: nearly all actives have a fitted effect of over 60% in size; overnight with compound
* hit, by the source's call; ? = inconclusive; & = joins results of further samples; [ ] = remark or other dose. On the % scale 0 is the no-effect control and ±100 the full control effect; potency means the concentration at half of the fitted maximal effect.

Each structure is followed by: 2A Renilla	StopGo FLuc
CC(=O)Nc1ccc(NC(=O)COc2ccc3c(C)cc(=O)oc3c2C)cc1
  7%	-3%
Cc1ccc(-n2nc(C)c3c(C(F)(F)F)cc(-c4cccnc4)nc32)cc1C
  -13%	-20%
CC(=O)c1cccc(NC(=O)c2ccccc2CSc2nc3ccccc3o2)c1
  88%[activator]	165%[activator]
CCc1ccc(NC(=O)C2CCCN(S(=O)(=O)c3ccc(F)cc3)C2)cc1 (stereo not given)
  -6%	-9%
CCCCN(CC)Cc1c(C)[nH]c2ccc(Br)cc2c1=O
  32%	28%
COc1cc(NC(=O)C(CC(C)C)NS(=O)(=O)c2ccc3c(c2)CCCC(=O)N3)cc(OC)c1 (stereo not given)
  -3%	-15%
O=C(Nc1ccccc1Sc1ccccc1)C1CCCC1
  29%	18%
Clc1ccc(-c2nn3c(CN4CCOCC4)nnc3s2)cc1
  8%	9%
CCOc1ccc(C(=O)N(Cc2ccc(C(C)C)cc2)Cc2ccco2)cc1
  61%[activator]	-14%
COc1ccccc1NC(=O)C(C)Sc1nnc2ccc3ccccc3n12 (stereo not given)
  2%	-15%
CC(=O)C(C)(CCC(=O)O)CCC(=O)O
  4%	-4%
O=C1CC(c2nc(-c3cccs3)no2)CN1c1ccc(F)cc1 (stereo not given)
  7%	-12%
COc1ccc(Nc2ncnc3c2cnn3-c2cc(Cl)ccc2C)cc1OC
  -10%	-1%
CN(C(=O)CSc1nc2ccccc2n1Cc1cccc(C(F)(F)F)c1)c1ccccc1
  ?	?
CCc1cccc(NC(=O)Cn2c(=O)n(CCC(=O)NCc3ccccc3Cl)c(=O)c3sccc32)c1
  17%	-14%
Cc1cccc(-n2ncc3c(Nc4ccc(C)c(Cl)c4)ncnc32)c1
  -6%	84%[activator]
COc1cc(OC)c(NS(=O)(=O)c2c(C(=O)N3CCCCCC3)c(C)n(C)c2C)cc1Cl
  109%[activator]	-1%
COc1ccc(C(=O)/C=C/c2cccc(N)c2)cc1
  14%	46%[activator]
CC(C)c1ccc(NC(=O)c2cc3c(=O)oc4ccccc4c3s2)cc1
  -1%	-10%
COc1ccc(OC)c(CCNC(=O)CCCn2c(=O)c3cccn3c3ccccc32)c1
  6%	-17%
CC(CNC(=O)c1nnc(C(=O)Nc2cccc(Cl)c2)s1)c1ccccc1 (stereo not given)
  1%	6%
CC(C)c1cc(N)c(O)c(C(C)C)c1
  7%	25%
Cc1cccc(-c2nc3scc(CCNS(=O)(=O)c4ccc(Oc5ccccc5)cc4)n3n2)c1
  -12%	?
O=C(NCCc1ccsc1)C1CC=CCC1 (stereo not given)
  27%	106%[activator]
COc1ccccc1C(=O)N1CCN(c2oc(-c3cccc(Cl)c3)nc2C#N)CC1
  9%	16%
COc1ccccc1NC(=O)Cn1c(=O)n(Cc2ccccc2)c(=O)c2ccccc21
  6%	-20%
COc1ccc(NC(C)=O)cc1NC(=O)c1cc(-c2ccco2)nc2ccccc12
  31%[activator]	62%[activator]
CCOC(=O)COc1ccc2c(=O)c(-c3ccc(Cl)cc3)c(C(F)(F)F)oc2c1
  -8%	-10%
CC1=C(c2ccc(C(C)C)cc2)S(=O)(=O)N=C1N1CCC(C(=O)NCc2ccccc2)CC1
  23%	-8%
Cc1ccc(CSc2nc(=O)c3c(n2C)NC(=O)CC3c2ccc(OC(C)C)cc2)cc1 (stereo not given)
  -12%	-15%

Rewritten bar-delimited: part of the list above
Molecule | 2A Renilla | StopGo FLuc
COc1ccc(NC(C)=O)cc1NC(=O)c1cc(-c2ccco2)nc2ccccc12 | 31%[activator] | 62%[activator]
CCOC(=O)COc1ccc2c(=O)c(-c3ccc(Cl)cc3)c(C(F)(F)F)oc2c1 | -8% | -10%

(cont.)
Each structure is followed by: 2A Renilla	StopGo FLuc
C=CCNC(=S)Nc1ccc(Cl)c(Cl)c1
  56%[activator]	-22%
Cc1ccc(C(=O)COC(=O)C(Cc2c[nH]c3ccccc23)NC(=O)c2ccc(C(C)(C)C)cc2)cc1 (stereo not given)
  -14%	24%
CC(=O)c1cccc(NC(=S)NCCSc2ccc(Cl)cc2)c1
  63%[activator]	-13%
CC(Oc1ccccc1F)C(=O)Nc1ccc(-c2nc3ccccc3o2)cc1 (stereo not given)
  3%	90%[activator]
O=C(Nc1ccc2oc(-c3cccc(Cl)c3Cl)nc2c1)c1cccc(Br)c1
  15%	0%
Cc1ccccc1C(=O)N(Cc1ccc(N(C)C)cc1)CC1CCCO1 (stereo not given)
  33%[activator]	-19%
COc1ccc(OC)c(-c2nc(C(N)=O)c3c(n2)n(-c2ccc4c(c2)OCO4)c(=O)n3C)c1
  -4%	0%
COc1cc(OC)c(NC(c2nnc(-c3ccccc3)o2)c2ccc(F)cc2Cl)cc1Cl (stereo not given)
  2%	-5%
CCc1ccccc1NC(=O)CCn1cnc2c1c(=O)n(C)c(=O)n2C
  -7%	-3%
Cc1nc(N)c(C(N)=O)[nH]1
  6%	6%
OCCc1cn[nH]c1
  12%	0%
CCCCCC[N+](C)(C)CCCCCCCCCC[N+](C)(C)CCCCCC
  -13%	-17%
Cc1ccc(NC(=O)Cn2nc(C)c3nn(-c4ccc(Cl)cc4)c(C)c3c2=O)cc1F
  1%	10%
CCC(CC)C(=O)Nc1cccc(C)c1C
  -2%	11%
COc1ccccc1CNc1ncnc2onc(-c3ccc(F)cc3)c12
  -15%	-18%
CC(C)n1ncc2c(C(=O)Nc3ccc(F)cc3)c3c(nc21)CCC3
  3%	1%
CCOc1ccc2nc(COc3cc(C)cc(C)c3)[nH]c2c1
  -10%	0%
CCOc1ccc(/C=C(\C#N)C(=O)Nc2sc3c(c2C(=O)OC)CCC3)cc1OC
  -5%	-15%
CCOC(=O)c1c(SCC(=O)Nc2ccc(F)cc2F)nc(=O)[nH]c1C
  -1%	0%
O=S(=O)(c1ccc(Cl)cc1Cl)n1ccnc1
  -6%	15%
CCCCNC(=O)CN1CC=C(c2ccc(O)cc2)CC1
  3%	6%
N#C/C(=C\c1ccc(-c2ccc(C#N)cc2)o1)c1nc2ccccc2[nH]1
  20%	21%
CCOc1ccccc1NC(=O)c1ccc2c(Cl)c3c(nc2c1)CCCC3
  15%	1%
CCN(CCCNC(=O)c1cc2c(Cl)nc3ccccc3c2s1)Cc1ccccc1
  -5%	-17%
CC(Oc1cccc(Cl)c1)C(=O)OCc1nc(N)nc(N)n1 (stereo not given)
  -15%	-4%
O=C(c1cccc(F)c1)N(Cc1cccc2[nH]ccc12)C1CC1
  157%[activator]	13%
CC(C)(C)C1CCc2nc(NC(=O)c3cccc(Cl)c3)sc2C1 (stereo not given)
  45%[activator]	-27%
Cn1nc(C(=O)N2CCN(CC(=O)N3CCCC3)CC2)c2ccccc2c1=O
  -3%	1%
CSc1oc(-c2ccc(F)cc2)nc1S(=O)(=O)c1ccc(Br)cc1
  -8%	-23%
Cn1c(=O)c2c(ncn2Cc2cccc3ccccc23)n(C)c1=O
  5.6µM*	?
C=C(C)Cn1c(N(C)C)nc2c1c(=O)[nH]c(=O)n2C
  -8%	-1%
COc1ccc(-n2c(=O)c3c4c(sc3n3c(SCCC(C)C)nnc23)COC(C(C)C)C4)cc1 (stereo not given)
  -4%	-1%
Cc1ccc(OCC(O)Cn2c(N)nc3c2c(=O)n(C)c(=O)n3C)cc1 (stereo not given)
  -14%	3%
Cn1c(=O)c2c(nc(Cl)n2CCOc2ccccc2Cl)n(C)c1=O
  ?	?
CCCCc1oc2c(c(=O)c1CC)C(=O)CC(C)(C)C2
  46%[activator]	29%
Cc1ccc2nc(N3CCN(C(=O)CCC(=O)O)CC3)nc(-c3ccccc3)c2c1
  -5%&-5%	6%&-9%
COc1ccc(NC(=O)c2cc(S(=O)(=O)N3CCOCC3)cn2C)cc1Cl
  -8%	0%
N#C/C(=C\c1ccc(-c2cccc(C(=O)O)c2)o1)c1nc2ccccc2[nH]1
  114%[activator]	61%[activator]
C/C=C/C=C/C(=O)Nc1ccccc1SC
  -8%	87%[activator]
Cc1ccc2c(COC(=O)COc3ccc(C)c(C)c3)cc(=O)oc2c1
  -11%	-3%
COc1cc(OC)cc(C(=O)OCc2nc3ccccc3o2)c1
  -13%	-12%
COc1cc(SC)ccc1C(=O)OCC(=O)Nc1cc(C)ccc1C
  0%	7%
CC(C)N1CNc2c(c(=O)[nH]c(=O)n2-c2cccc(Cl)c2)C1
  17%	45%[activator]
CCCCCCc1ccc(-c2ccc(CC)cc2)nc1
  13%	0%
CCOC(=O)C1CCN(C(=O)c2cc3ccc4ccc(C)[nH]c4c3n2)CC1
  39%[activator]	97%[activator]
Cc1ccc(O)c(NC(=O)c2cc(-c3ccccn3)nc3ccccc23)c1
  20%	0%
O=C(c1cc(=O)c2ccccc2o1)N(Cc1ccccc1Cl)C1CCS(=O)(=O)C1 (stereo not given)
  6%	3%
O=C(c1nc(-c2ccc(Cl)cc2)n2c1CCCCC2)N1CCN(c2ccccc2F)CC1
  29%	-19%
Cc1cc(/C=C(/CCCC(=O)O)c2nc3ccccc3s2)cc(C)c1O
  22%	212%[activator]
COc1cccc2[nH]c(C(=O)N[C@@H](C)C(=O)Nc3ccc4c(c3)OCCO4)cc12
  9%	?
CCOC(=O)Nc1ccc(C(=O)OCC23CC4CC(CC(C4)C2)C3)cc1
  -5%	-8%
Cc1ccc(C(=O)NC(C)(C)C)cc1I
  12%	53%[activator]
Cc1ccc(C)c(-n2ccnc2SCC(=O)Nc2ncc(C)s2)c1
  ?	-26%
N#C/C(=C\c1ccc(OC(=O)c2ccccc2)cc1)C(=O)Nc1ccccc1
  2%	10%
CC1(C)CC(=O)C2=C(C1)OC(c1ccccc1)(C(C)(C)C)NC2=O (stereo not given)
  7%	0%
CC(OC(=O)c1ccc(NC(=O)CC#N)cc1)C(=O)Nc1ccc(N2CCOCC2)cc1 (stereo not given)
  -2%	0%
CCc1cccc(C)c1NC(=O)CSC1CCCC1
  4%	-1%
Fc1cccc(Cl)c1Cn1c(CN2CCOCC2)nc2ccccc21
  -37%	?
Cc1cc2nc(/C(C#N)=C/c3cccc(Oc4ccccc4)c3)[nH]c2cc1C
  41%[activator]	107%[activator]
CCOc1ccc(C2C(C(=O)Nc3ccccc3OC)=C(C)Nc3c(C(=O)Nc4cccc(C)c4)cnn32)cc1 (stereo not given)
  -11%	-19%

By substructure: the compounds so far containing a CF3 group.
Each structure is followed by: 2A Renilla	StopGo FLuc
Cc1ccc(-n2nc(C)c3c(C(F)(F)F)cc(-c4cccnc4)nc32)cc1C
  -13%	-20%
CN(C(=O)CSc1nc2ccccc2n1Cc1cccc(C(F)(F)F)c1)c1ccccc1
  ?	?
CCOC(=O)COc1ccc2c(=O)c(-c3ccc(Cl)cc3)c(C(F)(F)F)oc2c1
  -8%	-10%

Next results.
Each structure is followed by: 2A Renilla	StopGo FLuc
O=C(CCc1ncc(-c2c(F)cccc2F)o1)NCc1ccco1
  12%	19%
Cc1cc(C)cc(Oc2c(C(F)(F)F)oc3cc(OCC(=O)OC(C)C)ccc3c2=O)c1
  1%	1%
COc1ccc(CCNC(=O)CS(=O)(=O)Cc2nc(-c3cccc(Cl)c3)oc2C)cc1OC
  -11%&-14%	-4%&-13%
CCCCCCCCS(=O)CCCl (stereo not given)
  -5%	-11%
CCC(=O)N1CCc2cc(S(=O)(=O)NC(C(=O)NCc3ccccc3Cl)C(C)C)ccc21 (stereo not given)
  -8%	-11%
Cc1cc(C)cc(-n2c(SCC(=O)Nc3cccc(F)c3)nc3c([nH]c4ccccc43)c2=O)c1
  -5%	-8%
C=CCNC(=O)c1ccccc1Nc1ccccc1
  -1%	-2%
c1ccc(-c2ccc(CNCCN3CCCC3)cc2)cc1
  -9%	-9%
CCCN(C(=O)C1CCN(S(=O)(=O)c2c(C)noc2/C=C/c2ccc(C)cc2)CC1)c1ccccc1F
  -5%	-8%
O=C(NCCc1ccccc1F)C1CC=CCC1 (stereo not given)
  14%	140%[activator]
COc1ccc(C2C=C(c3cccc(OC)c3)Nc3c(C(=O)Nc4ccccc4)cnn32)cc1 (stereo not given)
  -1%	-16%
CCOC(=O)c1ccc(NC(=O)c2c(NCc3sccc3C)sc3c2CCCCC3)cc1
  70%[activator]	-3%
CCN1C(=O)C(Cc2nc3ccccc3c(=O)n2-c2ccc(OC)cc2)c2cc(C)ccc21 (stereo not given)
  -9%	17%
COc1cccc(Cn2c(=O)n(CC3CCC(C(=O)N4CCCCC4)CC3)c(=O)c3sccc32)c1 (stereo not given)
  ?	?
C=CCNCc1ccc(Cl)cc1
  10%	17%
COc1ccc2cc(C(=O)N3CCN(S(=O)(=O)c4ccccc4C(F)(F)F)CC3)c(C)nc2c1
  -14%	-10%
CCCN1CCS(=O)(=O)N(Cc2cn(Cc3ccc(OC)cc3)nn2)C(C(=O)OC)C1 (stereo not given)
  -11%	-3%
COc1cccc(CNC(=O)C2=C(c3ccccc3)c3cc(Cl)ccc3S(=O)(=O)N2C)c1
  14%	-3%
O=C(Cn1nc2c(cc1=O)CCCC2)Nc1ccccc1Br
  10%	20%
O=C(NCc1ccccc1CN1CCCC1)c1cnn(-c2ccccc2)c1
  -14%	-8%
Cc1c(O)ccc2c(COC(=O)c3nn(C(C)C)c(=O)c4ccccc34)cc(=O)oc12
  -10%	-6%
CN(C)c1ncccc1C(=O)Nc1ccccc1F
  -5%	20%
N#Cc1ccccc1COC(=O)C(c1ccccc1)c1ccccc1
  -1%	-10%
CS(=O)(=O)c1ccc(Cl)c(NC(=O)CCCc2cccs2)c1
  12%	12%

The list is partial. The share of hits here may be higher or lower than overall.
